D2 ag: agonists of human D2 dopamine receptor (beta-arrestin); DiscoveRx PathHunter D2 beta-arrestin, luminescence, 90 min; 100% = 57 uM dopamine signal; activation, % (concentration not given with the values); 0.084% of 360,000 active; AID 624465; in the data active = activation above about 40%; inconclusive = about 15% to 40%; inactive = below about 15%; further: compound concentration not given in the record; the text of the record calls up to 30% inactive
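DiscoveRx PathHunter D2 beta-arrestin cells (2,100/well) attached overnight, then compound-stimulated 90 min at 37 C in HBSS/10 mM HEPES/0.1% Tween-20 buffer; beta-galactosidase complementation read by luminescence after 1 h at ambient temperature. Dopamine 57 uM final (EC100) as control.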
TRPV1 potentiator: potentiators of human vanilloid receptor 1 (TRPV1); TRPV1-expressing cells, Fluo-8 calcium influx, capsaicin EC20 potentiation; host cell line not named in the record; control for the full effect not named in the record; potentiation, % at 8.33 µM; 0.02% of 320,000 active; active means potentiation above 80%; inconclusive means 30% to 80%; inactive means below 30%; further: 0% is about no effect
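Cells expressing TRPV1 were dye-loaded with Fluo-8 and read kinetically: 10 s baseline, 3 min after compound (agonist portion), then 2 min after EC20 capsaicin (allosteric enhancer portion). Calcium-bound dye fluorescence at 480/520 nm.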
Six1-Eya2 inh: blocks human Six1 binding to Eya2. Q15475+O00167. 0.56% of 360,000 active. AlphaScreen GST-Six1/His-Eya2 binding, biochemical; stronger effect = lower value; control for the full effect not named in the record. AID 651725. activity change, % (no concentration beside the values); in the data active = activity change below about -65%; inconclusive = about -30% to -65%; inactive = above about -30%; further: on the % scale 0 is the no-effect control and ±100 the full control effect; compound concentration not given in the record
Target sequence (O00167 whole entry, looked up): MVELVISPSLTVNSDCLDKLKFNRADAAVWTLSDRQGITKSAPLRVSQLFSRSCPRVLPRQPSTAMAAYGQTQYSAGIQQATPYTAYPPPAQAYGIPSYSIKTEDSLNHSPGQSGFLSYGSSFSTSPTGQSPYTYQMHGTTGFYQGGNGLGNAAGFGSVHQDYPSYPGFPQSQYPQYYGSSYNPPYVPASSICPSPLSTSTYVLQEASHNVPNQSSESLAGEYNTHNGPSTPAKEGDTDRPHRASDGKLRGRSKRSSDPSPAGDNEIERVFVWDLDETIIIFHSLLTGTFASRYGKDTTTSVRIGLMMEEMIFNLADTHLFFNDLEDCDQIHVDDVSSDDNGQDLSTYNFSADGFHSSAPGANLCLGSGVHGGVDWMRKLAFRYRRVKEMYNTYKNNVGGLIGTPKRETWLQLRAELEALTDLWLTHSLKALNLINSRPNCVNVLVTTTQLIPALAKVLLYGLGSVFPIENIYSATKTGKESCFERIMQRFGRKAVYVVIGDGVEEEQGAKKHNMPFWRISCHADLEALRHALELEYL
Target sequence (Q15475 whole entry, looked up): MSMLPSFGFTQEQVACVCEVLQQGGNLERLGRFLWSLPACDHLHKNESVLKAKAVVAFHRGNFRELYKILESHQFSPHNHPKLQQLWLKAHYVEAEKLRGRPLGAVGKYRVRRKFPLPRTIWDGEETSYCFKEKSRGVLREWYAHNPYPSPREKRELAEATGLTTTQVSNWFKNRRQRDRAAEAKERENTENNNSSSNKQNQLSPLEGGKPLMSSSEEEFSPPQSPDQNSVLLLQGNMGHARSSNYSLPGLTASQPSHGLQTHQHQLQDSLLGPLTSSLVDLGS
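Homogeneous AlphaScreen proximity assay pairing GST-Six1 with His-tagged Eya2 (added as 5X mix: 250 nM and 500 nM) in 50 mM Tris pH 8.0, 300 mM NaCl, 1 mM TCEP. Glutathione donor and nickel acceptor beads; 1 h, 37 °C, dark.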
Sfp inh: inhibitors of Bacillus subtilis Sfp phosphopantetheinyl transferase; Q9F4F7; Biochemical Sfp PPTase activity, qHTS; Potency, µM, for inactives: max response, negative = inhibition, actives largely listed as inhibitors; 3.5% of 310,000 active; active means well fitted inhibition curve with a large enough effect; inconclusive means small, poorly fitted or top-dose-only effect, or another doubt; inactive means no such curve, though single readings can be large or run the other way;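 further: the enzyme is Sfp with the accession as filed and its product quenches rhodamine fluorescence; potency means the concentration at half of the fitted maximal effect; 0% = enzyme reaction without inhibitor and -100% = no enzyme wells; top concentration of the series not given in the record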
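Compounds were incubated with enzyme (final 15 nM) for 15 min at room temperature before substrate addition started the reaction. Fluorescence at 525 nm excitation, 598 nm emission was recorded immediately and after 30 minutes.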
PINK1 modulator: modulators of PINK1 expression | 0.2% of 410,000 active | Potency, µM (top dose mostly 76.6 µM), inactives show top-dose activation (PINK1 increase), usual class: activators | PINK1 immunofluorescence, high-content cytometry, 24 h | AID 624263; active = well fitted activation curve with a large enough effect; inconclusive = small, poorly fitted or top-dose-only effect; inactive = flat fitted curve, though single readings scatter; cell line not stated here;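 further: potency means the concentration at half of the fitted maximal effect; % of control where 0% means no effect; nearly all actives have a fitted effect of over 65% in size; a mitochondrial uncoupler was the plate control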
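Cells are seeded, rested 12 hours, then given compound at five concentrations or DMSO for 24 hours. After fixation, blocking and antibody staining, PINK1 amount and mitochondrial localization are scored; CCCP serves as control.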
CtBP-E1A blk: blocks the CtBP interaction with E1A; AlphaScreen GST-E1A/His-CtBP binding, 1536-well; stronger effect = lower value; control for the full effect not named in the record; activity change, % (concentration not given with the values); 0.49% of 340,000 active; AID 651724; in the data active means activity change below about -65%; inconclusive means about -30% to -65%; inactive means above about -30%; further: on the % scale 0 is the no-effect control and ±100 the full control effect
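Protein mix (5X: 125 nM each GST-E1A, His-CtBP) was incubated with pinned compound 2 h at 37 deg C in dark, in 50 mM Tris pH 8.0 buffer with 300 mM NaCl. Glutathione donor and nickel acceptor beads followed; AlphaScreen signal read after 1 h.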
D2 PAM: human D2 receptor positive allosteric modulation; 0.23% of 360,000 active; DiscoveRx D2 beta-arrestin cells, luminescence, 90 min; 100% = 57 uM dopamine signal; potentiation, % (no concentration beside the values); AID 624464; active = potentiation of 50% or more; inconclusive = 30% to 50%; inactive = 30% or less;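 further: compound concentration not given in the record; tested on top of an EC20 dose of dopamine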
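PathHunter D2 cells, attached overnight at 37 deg C, received compound in DMSO plus dopamine at EC20 (50 nM final) for 90 min at 37 deg C. Beta-arrestin recruitment was read as luminescence after 1 h with detection reagent at ambient temperature.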
* marks the source's active call; other numbers are inactive results; ? = inconclusive; . = no result given; & = joins results of further samples.

Results follow in this order: D2 ag, TRPV1 potentiator, Six1-Eya2 inh, Sfp inh, PINK1 modulator, CtBP-E1A blk, D2 PAM
COc1ccc(/C=C(\C#N)C(=O)NCc2ccccc2)cc1O
  1.3, 20.5, 0.2, 13.3%, 2.2%, 0.0, 0.9
CC(Oc1ccc(Br)cc1)C(=O)O/N=C(\N)c1ccncc1 (stereo not given)
  1.4, -5.5, 14.6, 0.7%, 2.9%, 18.5, -10.8
COc1cc(C(=O)NCc2cccs2)ccc1OCc1c(C)noc1C
  -3.2, ., 1.2, ., -0.6%, -0.9, -5.2
CC(=O)c1cccc(OCC(=O)N(Cc2ccco2)c2c(N)n(Cc3ccccc3)c(=O)[nH]c2=O)c1
  -1.3, -6.8, 7.1, ., -0.3%, 7.7, -1.4
Cc1ccc(-c2n[nH]c(=O)c3ccccc23)cc1S(=O)(=O)N(C)CCO
  0.0, -3.8, 10.8, 0.8%, 4.6%, 2.2, -0.5
CCOc1cc(/C=N/NC(=O)Cn2nc([N+](=O)[O-])cc2C)ccc1OCc1ccc(F)cc1
  2.0, 9.2, 0.5, 44.7µM*, -0.9%, -2.7, 1.2
COc1ccc(N2CCN(C(=S)NC(C)c3ccccc3)CC2)cc1 (stereo not given)
  -2.0, 2.1, -9.7, 7.5%, 1.1%, ., -3.0
COc1cc(OC)cc(C(=O)N2CCC(N3CCN(c4ccccc4OC)CC3)CC2)c1
  0.8, 6.4, -11.7, -51.6%, 1.4%, -3.0, -29.4
CC(C)(C)NC(=O)COC(=O)/C=C/c1ccc(F)cc1
  2.9, -11.3, 3.1, 14.5%, -1.3%, 8.0, 3.6
COc1cccc(NC(=O)CSc2nc3n[nH]c(C)c3c(=N)n2-c2cccc(OC)c2)c1
  1.2, 3.3, ?, 13.5%, 6.9%, ?, -3.3
CC(C)(C)c1cc(Br)c(O)c(N=Nc2ccc(S(=O)(=O)N3CCOCC3)cc2)c1
  -1.4, -14.5, ?, 3.3%, 0.8%, ?, -1.2
CCn1c(SCC(=O)Nc2cc(F)ccc2C)nnc1-c1ccccc1O
  -3.7, 9.9, 6.9, 21.6%, 5.3%, 3.3, 2.3
CCn1c(-c2ccncc2)n[nH]c1=S
  0.6, 10.2, -1.4, 39.8µM*, -0.5%, 4.3, -12.7
CCC(=O)N1CCc2cc(Br)c(S(=O)(=O)NCCN3CCCCC3CC)cc21 (stereo not given)
  0.8, ., -6.4, ., -4.4%, 1.3, -11.5
O=C(COC(=O)COc1ccc(Cl)cc1)NCCNC(=O)COC(=O)COc1ccc(Cl)cc1
  -3.9, 3.3, 7.2, ., 0.3%, -0.7, 0.9
CC(=O)/C=C/c1ccccc1O
  1.0, -6.8, 3.6, 26.1%, -1.6%, ., -6.6
NC(=O)c1ccc2c(=O)c(O)c(-c3cc(Cl)c(N)c(Cl)c3)[nH]c2c1
  -2.9, -7.2, -4.0, -19.9%, 0.9%, 4.5, -5.3
O=C(c1cn(-c2ccccc2)nc1-c1ccccc1)N1CCOCC1
  -1.4, -26.8, 1.1, -9.5%, -2.0%, 5.7, -6.7
Cc1noc(C)c1S(=O)(=O)N1CCCC(C(=O)NCCC2=CCCCC2)C1 (stereo not given)
  1.7, -1.2, 2.6, 10.0%, 9.6%, 8.4, 10.1
O=C(C1CC(=O)N(c2ccc(Br)cc2)C1)N1CCCC1 (stereo not given)
  -5.4, ?, 4.8, 5.9%, 0.0%, 3.1, -7.7
Cc1ccc(CCC(=O)Nc2ccc([N+](=O)[O-])cc2)o1
  -3.2, -20.8, -21.1, -15.1%, -0.7%, -28.0, -10.5
CC(C)OCCCNC(=O)c1ccc(CN2CCc3ccccc3C2)cc1
  -5.9, -3.6, -2.4, 5.2%, 0.1%, 8.7, -25.4
CC1CCc2c(C(=O)NCc3ccco3)csc2C1 (stereo not given)
  -5.3, -3.6, -11.0, -8.7%, 0.1%, -0.5, 0.3
C[C@H](CO)NC(=O)[C@@H]1C[C@H]1[C@@H](NP(=O)(c1ccccc1)c1ccccc1)c1ccccc1
  -2.2, 4.0, -13.1, 0.0%&20.3%, -0.4%, -14.0, -18.6
CCNC(=O)N(CC)C[C@H]1N[C@@](C)(C(=O)OC)[C@H]2C(=O)N(C)C(=O)[C@@H]12
  -1.8, ., -6.8, ., -1.0%, 0.2, -5.5
O=C(COC(=O)CCC1CCCC1)Nc1ccccc1OC(F)F
  1.2, -10.2, 29.5, 13.5%, -0.1%, -5.6, 8.8
CN(C)S(=O)(=O)c1ccc2c(c1)C(CC(=O)O)NC2=O (stereo not given)
  -1.2, -7.4, -1.1, 13.7%, 1.2%, -0.8, -7.2
NC(=O)c1ccc(N2CCN(c3ncc(C(F)(F)F)cc3Cl)CC2)cc1
  -2.4, -3.0, 2.1, 12.4%, 0.8%, 6.8, -0.2
COc1ccc(-c2nnc(Sc3nc4ccccc4o3)c3ccccc23)cc1
  -3.2, 6.6, -8.9, 6.9%, ., 10.5, -1.7
Cc1cc(C)cc(-n2c(SCC(=O)NCc3ccco3)nc3ccccc3c2=O)c1
  -2.1, 11.9, 1.7, 6.2%, 8.9%, 2.1, -6.0

Continuation:
smiles,D2 ag,TRPV1 potentiator,Six1-Eya2 inh,Sfp inh,PINK1 modulator,CtBP-E1A blk,D2 PAM
COC(=O)c1cc(C(=O)N2CCN(c3cccc(Cl)c3)CC2)cc([N+](=O)[O-])c1,12.4,-3.9,-23.4,17.6%,5.4%,-17.4,16.5
COC(=O)Cc1[nH]c(=S)[nH]c1C(=O)OC,1.3,7.6,5.9,56.2µM*,1.6%,-2.3,-3.6
CC(=O)/C(C[N+]1(C)CCCCC1)=N\O,0.6,?,8.9,3.7%,-0.1%,-2.2,-14.6
N#C/C(=C/c1ccc(Br)s1)C(=O)NCCc1c[nH]c2ccccc12,-1.4,9.0,-10.3,2.6%,7.6%,-1.4,-6.7
O=C(Nc1ccccc1)N(C1=NCCCCS1)c1ccccc1,-2.0,-0.1,-1.4,-12.6%,2.9%,1.6,-18.7
CN(C(=O)c1cccc(NC(=O)Cc2cccc([N+](=O)[O-])c2)c1)C1CCC1,4.3,.,-5.9,.,0.3%,4.8,-1.1
COCCN1Cc2cccc(C(=O)Nc3c(C)cc(C)cc3C)c2C1=O,2.0,3.1,4.6,4.7%,1.2%,-2.4,-10.9
COc1ccc(NC(=O)c2ccc3c(=O)n(-c4ccc(OC)cc4OC)c(=S)[nH]c3c2)cc1,-3.7,7.7,-24.5,-26.1%,0.4%,0.0,-10.4
O=C(COC(=O)/C=C/c1ccc(OC(F)F)cc1)Nc1ccc(N2CCOCC2)cc1,-2.4,-6.3,-1.7,.,?,6.5,-2.7
C=CCN1C=C2C(=O)C(C)(OC(=O)C3CCCC3)C(=O)C=C2C=C1c1ccsc1 (stereo not given),8.2,26.4,-12.7,-13.7%&2.5%,2.6%,-29.0,13.9
Nc1nnc(SCC(=O)OCC(=O)Nc2ccccc2)s1,0.8,3.8,-7.3,5.8%,-0.2%,.,-2.4
COc1ccc2sc(C)nc2c1NC(C)=O,-0.3,10.7,7.5,15.7%,-2.0%,0.0,-5.4

Some entries already given with just D2 ag and CtBP-E1A blk:
compound	D2 ag	CtBP-E1A blk
CCC(=O)N1CCc2cc(Br)c(S(=O)(=O)NCCN3CCCCC3CC)cc21 (stereo not given)	0.8	1.3
CC1CCc2c(C(=O)NCc3ccco3)csc2C1 (stereo not given)	-5.3	-0.5
C[C@H](CO)NC(=O)[C@@H]1C[C@H]1[C@@H](NP(=O)(c1ccccc1)c1ccccc1)c1ccccc1	-2.2	-14.0

Additional entries.
smiles,D2 ag,TRPV1 potentiator,Six1-Eya2 inh,Sfp inh,PINK1 modulator,CtBP-E1A blk,D2 PAM
Fc1cccc(F)c1-n1c(CN2CCCCC2)csc1=S,2.9,?,-19.0,6.6%,7.3%,0.0,-4.0
Cn1ccsc1=NC(=O)c1cc(S(=O)(=O)N2CCOCC2)ccc1F,0.0,12.0,-12.2,.,-2.6%,-1.4,7.7
CCN1CCCC1CNC(=O)C(=O)NC(C)c1ccccc1 (stereo not given),-5.5,4.0,3.5,3.4%,4.0%,-0.6,-4.3
C=C[C@H]1[C@H](O[C@@H]2O[C@H](CO)[C@@H](O)[C@H](O)[C@H]2O)OC=C2C(=O)OCC[C@]21O,-1.4,.,5.1,.,0.1%,-1.0,-17.6
CCOC(=O)c1ccc(NC(=S)NCCc2ccccc2F)cc1,-1.0,-3.9,-3.2,20.6%,?,-8.8,3.0
CN(c1ccc(C(=O)N2CCc3ccccc3C2)cc1)S(C)(=O)=O,-2.3,4.2,-3.6,15.1%,0.2%,3.4,-1.4
COc1ccc(NC(=O)c2nc[nH]c2C(=O)N2CCC(C)CC2)cc1,-2.0,-13.5,6.2,10.4%,1.5%,0.6,-18.3
Cc1ccc(S(=O)(=O)Nc2nc3ccccc3nc2NCc2ccc3c(c2)OCO3)cc1C,0.1,-37.6,-0.3,14.7%,-2.4%,0.3,2.2
O=C(c1ccc(F)cc1)C1CCN(C(=S)Nc2ccc(F)cc2)CC1,-1.5,-10.9,-5.8,0.7%,-0.4%,2.7,-14.4
CCN(CC(=O)Nc1c(F)cccc1F)C(=O)CCNC(=O)c1ccc([N+](=O)[O-])cc1,0.8,3.1,1.0,.,11.1%,2.6,-0.1

Compound activity from PubChem.
